High-throughput results as filed in PubChem BioAssay.
HCMV NEC inh: inhibitors of HCMV UL50-UL53 interaction, biochemical, HTRF; HCMV UL50-UL53 nuclear egress complex (human cytomegalovirus); normalized percent inhibition; inhibition, % (test concentration not listed); hit rate 0.15% among 190,000; AID 1918969, 2023;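 active = both replicates at 50% or more, plus weaker picks with an unusually low signal ratio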;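 also: stock transfer was 100 nL into about 20 µL; 0% = negative control wells and 100% = wells with untagged competitor protein; inactives centre near -12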
GIV-Gai inh: inhibitors of GIV peptide binding to Galpha-i3, primary screen, biochemical, fluorescence polarization, FITC-GIV GBA peptide, rat Galphai3; Guanine nucleotide-binding protein G(i) subunit alpha-3 (Rattus norvegicus), P08753; 90 min; active compounds read low; scaled: aluminum fluoride 0%, vehicle 100%; percent of control (FP), % (concentration not given with the values); hit rate 0.42% among 210,000; AID 1224905, 2016;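 active = replicate mean at 85% of control or lower, very high polarization wells dropped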;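 also: wells of about 15 µL received 100 nL stock; the first replicate is given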
Target sequence (P08753 whole entry, looked up): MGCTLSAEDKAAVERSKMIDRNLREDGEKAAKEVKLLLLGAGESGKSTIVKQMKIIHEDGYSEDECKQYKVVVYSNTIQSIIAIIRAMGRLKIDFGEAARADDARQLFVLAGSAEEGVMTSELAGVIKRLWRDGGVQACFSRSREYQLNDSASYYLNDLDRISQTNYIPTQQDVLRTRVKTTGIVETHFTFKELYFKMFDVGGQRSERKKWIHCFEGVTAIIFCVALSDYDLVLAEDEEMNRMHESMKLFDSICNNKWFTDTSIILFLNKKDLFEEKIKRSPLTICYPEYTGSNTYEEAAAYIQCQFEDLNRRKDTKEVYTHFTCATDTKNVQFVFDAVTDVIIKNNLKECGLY
Sa growth 42C: S. aureus growth inhibition at 42 and 30 °C, primary screen, LtaS inhibitor project, RN4220, two temperatures; OD600, 20 h, 42 °C; active compounds read low; relative growth, % (test concentration not listed); hit rate 0.53% among 170,000; AID 720641, 2013;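 active = growth at 42 °C up to 50% and 20 or more points under that at 30 °C, or under 10% at both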;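 also: 300 nL library stock went into each well; scaled to the means of positive and negative controls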
Sa growth 42C second temp: also measured in Sa growth 42C; calls as there; relative growth, %; measured here: growth at 30 °C;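 optical density after 20 h as mean of two plates; 100% = untreated growth and lower means inhibition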
Numbers without * were called inactive; / = no result given; & = joins results of further samples. No enrichment for hits (roughly 0.85% active in at least one column).

SMILES | HCMV NEC inh | GIV-Gai inh | Sa growth 42C | Sa growth 42C second temp
CCOC(=O)C1=C(C(C)C)NC(=O)NC1c1ccc(F)cc1 (stereo unspecified) | -16 | 98 | 101 | 94
O=C(NCc1cccn1Cc1ccc(Cl)cc1)NCC1CCCO1 (stereo unspecified) | -26 | 100 | / | /
O=C(Nc1c[nH]c2ccccc12)N1CCOCC1 | -147 | 102 | 3.5* | 9.9*
CCOC(=O)c1oc2ccccc2c1CSc1nc2ccccc2c(=O)n1CC1CCCO1 (stereo unspecified) | 7 | / | 100 | 94
CC1CCCN(c2ncnc3c2nc2n3CCCCC2)C1 (stereo unspecified) | / | 105 | 95 | 80
O=C(CC1CCN(C(=O)C2CCCCC2)CC1)N1CCCCCC1 | -41 | 102 | / | /
CC(C)N1C(=O)CC(Nc2cccc3cccc(N)c23)C1=O (stereo unspecified) | -59 | 108 | 99 | 82
S=C(NCc1ccccc1)NC1CC1 | -1 | 105 | 98 | 98
O=C(N/N=C/C=C/c1ccccc1)c1cc(C2CC2)[nH]n1 | -41 | 102 | 95 | 93
CN(CCO)c1ccc(C(=O)c2ccc(N(C)CCO)cc2)cc1 | -41 | 107 | 118 | 81
O=C(NCCc1ccccc1)c1ccc(CS(=O)(=O)c2ccc(Br)cc2)o1 | 15 | 105 | 101 | 96
O=C(CCc1cn(Cc2ccc(F)cc2)c2ccccc12)NC1CCCc2ccccc21 (stereo unspecified) | / | 106 | 90 | 78
c1cc2c3c(cccc3c1)C(N1CCCCCC1)=N2 | -57 | / | 99 | 92
CCN(CC)c1ccc(C(=O)NCc2ccc3c(c2)CCN3C(=O)c2ccc(F)cc2)cc1 | / | 103 | 100 | 86
O=c1[nH]c2ccc(NCc3ccc(-c4ccc(F)cc4)o3)cc2[nH]1 | 3 | 103 | 108 | 92
Cc1cc(C(=O)COc2ccc(F)cc2)c(C)n1-c1ccccc1 | -2 | / | 101 | 96
CCSc1nnc(C2CCCN(CC(=O)NC3CCCCC3C)C2)n1CC (stereo unspecified) | -8 | 105 | 98 | 72
CCOC(=O)c1c(-c2cccs2)csc1NC(=O)COC(=O)c1cc2c(s1)CCC2 | -36 | / | 78 | 65
Cc1nn(-c2ccccc2)nc1CNC(=O)c1ccc(N(C)C)cc1 | -40 | 111 | 110 | 86
CN1CCN(C(=O)c2nn3c(C(F)(F)F)cc(-c4ccc(Cl)cc4)nc3c2Cl)CC1 | -35 | 100 | / | /

Copied from the list:
Entry for O=C(N/N=C/C=C/c1ccccc1)c1cc(C2CC2)[nH]n1 under HCMV NEC inh: -41
Entry for O=C(NCc1cccn1Cc1ccc(Cl)cc1)NCC1CCCO1 (stereo unspecified) under HCMV NEC inh: -26
Entry for CC(C)N1C(=O)CC(Nc2cccc3cccc(N)c23)C1=O (stereo unspecified) under HCMV NEC inh: -59
Entry for CN1CCN(C(=O)c2nn3c(C(F)(F)F)cc(-c4ccc(Cl)cc4)nc3c2Cl)CC1 under GIV-Gai inh: 100

Next part
SMILES | HCMV NEC inh | GIV-Gai inh | Sa growth 42C | Sa growth 42C second temp
O=C(CN1C(=O)c2ccccc2Sc2ncccc21)N1CCN(C2CCCCC2)CC1 | -5 | 104 | / | /
CCCCN(C)C(=O)c1cc2cccnc2n(Cc2ccc(F)cc2)c1=O | -19 | 107 | / | /
O=C(Cc1ccc(-c2ccccc2)cc1)NCCS(=O)(=O)N1CCN(c2ccc(F)cc2)CC1 | / | 104 | 97 | 89
Cc1ccc(Cl)cc1N1CCN(CC(=O)Nc2ccc3[nH]c(=O)[nH]c3c2)CC1 | -6 | 102 | 109 | 95
O=C1CCSc2ccc(S(=O)(=O)N3CCC(CN4CCc5ccccc5C4)CC3)cc2N1 | -13 | 107 | / | /
COc1ccc(S(=O)(=O)NCCc2csc(-c3ccc(F)cc3)n2)cc1 | / | 99 | 102 | 96
Cc1nnc(NC(=O)c2cccc(Cl)c2)s1 | -4 | / | 97 | 87
CSC(=S)OCC12CC3CC(CC(C3)C1)C2 | -23 | 102 | 101 | 85
CC(C)(C)NC(=O)c1ccccc1 | / | 100 | 89 | 97
Clc1ccc(CSc2nc(NCCc3ccccc3)c3ccccc3n2)cc1 | / | 101 | 93 | 84
Cc1ccn2cc(C(=O)N3CCCN(S(=O)(=O)c4ccc(F)cc4)CC3)nc2c1 | 18 | / | 100 | 103
FC(F)(F)c1ccc(NCn2nnc3ccccc32)cc1 | 2 | 101 | 100 | 97
Cc1nn(C(=O)c2ccccc2F)c(C)c1S(=O)(=O)N1CCOCC1 | / | 101 | 91 | 89
Cc1ccc(-n2c(SC(C)C(=O)NC(N)=O)nc3ccccc32)cc1 (stereo unspecified) | -23 | / | 71 | 73
O=C(CSc1nccc(C(F)(F)F)n1)Nc1ccc(Br)cc1 | / | 102 | 97 | 91
CCOC(=O)C(C)NC(=O)c1c2c(nc3ccccc13)C(=O)N(C1CCCCC1)C2 (stereo unspecified) | / | 102 | 108 | 86
O=C(Cn1c(=O)oc2cc(S(=O)(=O)N3CCCCC3)ccc21)Nc1cccc(Cl)c1 | -19 | 100 | 113 | 70
CN(Cc1ccc(F)cc1)S(=O)(=O)c1nnc(NC(=O)c2ccccc2Cl)s1 | / | 104 | 84 | 25
O=C(CSC1=NCCS1)Nc1ccccc1C(F)(F)F | / | 97 | 98 | 97
COc1ccc(NC(=O)c2oc3ccc(S(=O)(=O)N4CCCCC4)cc3c2C)cc1 | / | 101 | 119 | 93
CC(=N\O)/C(=N\O)c1cccs1 | -10 | 105 | 113 | 108
COc1cccc(NC(=O)Cn2nnc(C(=O)NCc3cccs3)c2N)c1 | / | 100 | 102 | 66
Cc1cc(C)c(Cn2cnc3nc4c(cc3c2=O)CCCC4)c(C)c1 | / | 102 | 79 | 89
CC1(C)CC2CC(C)(CN2C(=O)CSc2nnnn2-c2ccccc2)C1 (stereo unspecified) | -5 | / | 110 | 95
O=C1N(CCOc2ccccc2)c2ccccc2C12OCCCO2 | -13 | 99 | 78 | 86
O=C(COc1cccc2c1CCN(Cc1ccccc1)C2=O)Nc1ccc2c(c1)OCCO2 | -12 | 95 | 107 | 98
CCOc1ccc(NC(=O)c2cc3ccccc3o2)cc1OCC | 4 | 111 | 107 | 102
COc1cc(C2C3=C(CC(C)(C)CC3=O)OC3=C2C(=O)CC(C)(C)C3)ccc1OCC(=O)Nc1ccc2c(c1)OCO2 | 8 | 96 | / | /
Cn1c(Nc2ccccc2)nc2ccccc21 | -27 | 102 | 87 | 79
c1coc(CNCC2OCCc3ccccc32)c1 (stereo unspecified) | -9 | 108 | 94 | 87
Cc1nc2cccnc2n1-c1ccc(CC(=O)NCCC2=CCCCC2)cc1 | -14 | 113 | / | /
CC1CCCCN1c1ccc(C(F)(F)F)cn1 (stereo unspecified) | -26 | / | 100 | 81
CCOc1ccc(OCCC(=O)Nc2ccc(S(=O)(=O)N(C)C)cc2)cc1 | -21 | / | 87 | 98
CCSc1nn(CC(=O)Nc2ccc3c(c2)OCO3)c(N)c1S(=O)(=O)c1ccc(C)cc1 | -14 | 100 | / | /
CCn1cc(CCC(=O)NC(C)C)c2ccccc21 | -21 | 96 | 92 | 82
CCCCN(C)S(=O)(=O)c1ccc2c(c1)CCCC(=O)N2 | -6 | 98 | 103 | 87
COc1ccc(CN(C)C(=O)CSc2ccccc2)cc1 | -42 | 110 | 105 | 101
CCn1c(=O)c2c(C(=O)NCCN3CCCC3)cc(=O)n(CC)c2n(C)c1=O | -29 | 106 | / | /
COc1cc2ccccc2cc1C(=O)Nc1ccc(Cl)c(-c2nc3ccccc3o2)c1 | -37 | 102 | 103 | 89
CCN1CCN(C(C)C(=O)Nc2ccc3c(c2)OCO3)CC1 (stereo unspecified) | 8 | 105 | 88 | 82

Entries listed so far that have fluorine:
SMILES | HCMV NEC inh | GIV-Gai inh | Sa growth 42C | Sa growth 42C second temp
CCOC(=O)C1=C(C(C)C)NC(=O)NC1c1ccc(F)cc1 (stereo unspecified) | -16 | 98 | 101 | 94
O=C(CCc1cn(Cc2ccc(F)cc2)c2ccccc12)NC1CCCc2ccccc21 (stereo unspecified) | / | 106 | 90 | 78
CCN(CC)c1ccc(C(=O)NCc2ccc3c(c2)CCN3C(=O)c2ccc(F)cc2)cc1 | / | 103 | 100 | 86
O=c1[nH]c2ccc(NCc3ccc(-c4ccc(F)cc4)o3)cc2[nH]1 | 3 | 103 | 108 | 92
Cc1cc(C(=O)COc2ccc(F)cc2)c(C)n1-c1ccccc1 | -2 | / | 101 | 96
CN1CCN(C(=O)c2nn3c(C(F)(F)F)cc(-c4ccc(Cl)cc4)nc3c2Cl)CC1 | -35 | 100 | / | /
CCCCN(C)C(=O)c1cc2cccnc2n(Cc2ccc(F)cc2)c1=O | -19 | 107 | / | /
O=C(Cc1ccc(-c2ccccc2)cc1)NCCS(=O)(=O)N1CCN(c2ccc(F)cc2)CC1 | / | 104 | 97 | 89
COc1ccc(S(=O)(=O)NCCc2csc(-c3ccc(F)cc3)n2)cc1 | / | 99 | 102 | 96
Cc1ccn2cc(C(=O)N3CCCN(S(=O)(=O)c4ccc(F)cc4)CC3)nc2c1 | 18 | / | 100 | 103
FC(F)(F)c1ccc(NCn2nnc3ccccc32)cc1 | 2 | 101 | 100 | 97
Cc1nn(C(=O)c2ccccc2F)c(C)c1S(=O)(=O)N1CCOCC1 | / | 101 | 91 | 89
O=C(CSc1nccc(C(F)(F)F)n1)Nc1ccc(Br)cc1 | / | 102 | 97 | 91
CN(Cc1ccc(F)cc1)S(=O)(=O)c1nnc(NC(=O)c2ccccc2Cl)s1 | / | 104 | 84 | 25
O=C(CSC1=NCCS1)Nc1ccccc1C(F)(F)F | / | 97 | 98 | 97
CC1CCCCN1c1ccc(C(F)(F)F)cn1 (stereo unspecified) | -26 | / | 100 | 81

The results go on:
SMILES | HCMV NEC inh | GIV-Gai inh | Sa growth 42C | Sa growth 42C second temp
O=C(NCc1ccc(Cl)cc1)c1cc2c(Cl)nc3ccccc3c2s1 | / | 107 | 91 | 96
COc1ccccc1CN1CCCC(C(=O)N(C)Cc2ccccc2)C1 (stereo unspecified) | / | 102 | 79 | 75
Cc1ccc(S(=O)(=O)/N=C(\Nc2cc(C)on2)c2ccccc2)cc1 | / | 109 | 107 | 92
Cc1nnsc1-c1n[nH]c(C)c1C(=O)NN | -41 | 106 | 90 | 89
COc1ccc2sc(N(CCN(C)C)C(C)=O)nc2c1 | / | 104 | 92 | 86
O=C(c1cc2ccc3cccnc3c2[nH]1)N1CCN(c2ccc(Cl)cc2)CC1 | / | 101 | 110 | 98
CCOc1ccc(-c2cc3nc(C4CCN(C(=O)OC(C)(C)C)CC4)c(C(=O)Nc4cccc(CC)c4)cn3n2)cc1 | -25 | 104 | 109 | 95
COc1ccc(NC(=O)c2nnc(CSCC(=O)N3CCN(c4ccccn4)CC3)s2)cc1 | -18 | 99 | / | /
CN1C(=O)c2ccc(NC(=O)c3c(F)c(F)c(F)c(F)c3F)cc2C1=O | -21 | 101 | 106 | 100
COc1ccccc1CC(=O)N1CCCC(C)C1 (stereo unspecified) | -9 | / | 78 | 89
CCc1nnc2c(Nc3ccc4c(c3)OCCO4)nc3ccccc3n12 | -22 | 106 | 91 | 71
CCOC(=O)c1nnn2c1nc(Sc1nnc(-c3ccncc3)n1C)c1ccccc12 | -43 | 105 | 87 | 70
Cc1ccc(S(C)(=O)=NS(=O)(=O)c2sc3ccc(Cl)cc3c2C)cc1 (stereo unspecified) | -34 | 101 | 103 | 89
CCOC(=O)C1=C(N)Oc2c(C)cc(Cl)cc2C1C(C#N)C(=O)OCC (stereo unspecified) | 16 | 107 | 107 | 91
O=C(CCN1C(=O)/C(=C/c2cccs2)SC1=S)Nc1nc2ccccc2s1 | 7 | 114 | / | /
O=C(OCc1nnc(-c2ccc(Cl)cc2)o1)c1ccc2c(c1)C(=O)N(Cc1ccco1)C2=O | -29 | / | 106 | 81
C=CC[N+](C)(C)CC#Cc1ccccc1 | / | 100 | 83 | 84
NS(=O)(=O)Cc1noc2ccccc12 | -6&-7&-37 | 108 | 97 | 97
N#Cc1ccsc1NC(=O)COC(=O)CSc1nnc(-c2ccc(F)cc2)n1-c1ccccc1 | -2 | / | 100 | 100
COc1cc(OC)cc(-c2nc3nc(C)c(CCC(=O)Nc4ccccc4)c(C)n3n2)c1 | 0 | 102 | 113 | 92
N#Cc1ccc(COC(=O)Cn2ccc(=O)[nH]c2=O)cc1 | -26 | / | 81 | 80
COC(=O)c1ccc(OC(=O)c2sccc2C)cc1 | -32 | / | 117 | 89
CC(=O)N1CCc2cc(CNS(=O)(=O)c3ccccc3C(F)(F)F)ccc21 | / | 98 | 83 | 83
CC(C1CC1)N1C(=O)C2C(C1=O)C1C=CC2C12CC2 (stereo unspecified) | -23 | 96 | 85 | 84
COC(=O)c1ccc(Nc2nc(N3CCN(C)CC3)c3ccccc3n2)cc1 | -2 | 100 | 97 | 86
Cc1ccc(SCCC#N)cc1 | -2 | / | 98 | 87
CCCn1nnc2c(=O)oc3ccccc3c21 | -21 | 101 | 101 | 86
Nc1c(C(=O)Nc2ccccc2Cl)c2ccccn2c1C(=O)c1ccc(Cl)cc1 | -11 | 101 | 104 | 87
